High-throughput results (PubChem)
Rce1 inh: yeast Rce1p protease inhibitors, primary screen, biochemical, fluorescence, cell-free homogeneous; actives 0.27% (n = 290,000); calls only; yeast membranes, quenched prenylated peptide cleavage fluorescence; CAAX prenyl protease 2 (Saccharomyces cerevisiae (strain ATCC 204508 / S288c)), Q03530;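 active means fall in fluorescence gain of 50% or more versus controls, with final raw signal at or below 3038400; inconclusive means same 50% fall but final raw signal above 3038400; inactive means fall in fluorescence gain under 50%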;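 further: plate controls were neutral control wells for no effect and wells lacking membranes for full effect; tested at 10 µM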
Yeast UUG start: modulators of yeast start codon fidelity, primary screen, whole organism, S. cerevisiae, single point, plate reader; AID 602363, 2012; S. cerevisiae UUG-firefly luciferase reporter, luminescence/redox ratio; activity score, % at 18.7 µM; actives 0.13% (n = 350,000);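 active means replicate mean at a twofold rise or more, about +100% in these data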;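 further: firefly luciferase made from a UUG start codon reports start codon fidelity; reporter light over untreated wells divided by growth signal over untreated wells; some hits fall short of that in this replicate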
eIF4H FP inh: human eIF4H binding inhibitors, primary screen, translation initiation inhibitor project, biochemical, uHTS, fluorescence polarization. AID 2012, 2009. eIF4H fluorescence polarization binding assay. inhibition, % at 35 µM. Eukaryotic translation initiation factor 4H (Homo sapiens), Q15056. actives 0.94% (n = 290,000);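 active means 50% or more with normal probe brightness, or confirmed in later tests; inconclusive means above 50% with abnormal brightness, or retests that disagree; inactive means below 50% or failed in later tests; about a fifth of its hits are not listed in these tables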;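 further: calls also rest on retests at 20 µM and on dose response follow-up; 0% = protein and probe with vehicle and 100% = probe without protein; strong numbers were not always called active; many hits fall short of the cut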
CSC inhib: cancer stem cell viability inhibitors, primary screen, luminescence; cancer stem cell-like cells viability; inhibition, % at 7.5 µM; actives 1.1% (n = 300,000); AID 2717, 2010;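 active means mean at 75% or more and at least half the replicates too; inconclusive means mean and replicates disagree; tested in HMLE shEcad cells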;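 further: 0% = median of negative and 100% = median of positive control wells; the first replicate is given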
MT1-MMP act inh: blockers of MT1-MMP proenzyme processing, primary screen, HT1080 RFP-PRO-GFP cells, GFP/RFP fluorescence; GFP/RFP ratio fluorescence, overnight; percent of plate control window, DMSO zero; AID 651647, 2012; Matrix metalloproteinase-14 (Homo sapiens), P50281; GFP/RFP ratio change, % at 20 µM; actives 0.061% (n = 360,000);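 active means GFP/RFP ratio change of at least 30% with cell ATP level not reduced by more than half and red fluorescence within 50% of control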; further: strong numbers were not always called active
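Assay system: HT1080 cells carrying an RFP-PRO-GFP reporter | Dosing: Single dose of 20 µM compound, 1% DMSO final | Incubation: Cells overnight before dosing, compound overnight, 37 °C, 5% CO2 | Evaluation: GFP/RFP fluorescence ratio | Control set: DMSO and RFP-L50D-GFP cell wells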
HIV Env fusion: inhibitors of HIV-1 Env-driven cell-cell fusion, primary screen, HeLa-JRFL effector, CEM21 target cells, luciferase | inhibition, % at 12.3 µM | actives 1.1% (n = 360,000) | AID 651610, 2012;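 active means mean replicate inhibition score of at least 50 and every replicate individually at or above 50; inconclusive means only one of the two criteria met; inactive means mean below 50 and not all replicates reaching 50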;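 further: 0% = plate neutral controls and 100% = maraviroc near 300 nM; one replicate is shown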
PABP FP inh: PABP poly(A) RNA binding inhibitors, primary screen, biochemical, fluorescence polarization, uHTS; Polyadenylate-binding protein 1 (Homo sapiens), P11940; actives 1% (n = 290,000); inhibition, % at 35 µM;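 active means 50% or more with normal probe brightness, or confirmed in later tests; inconclusive means above 50% with abnormal brightness, or retests that disagree; inactive means below 50% or failed in later tests; about a fifth of its hits are not listed in these tables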;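 further: calls also rest on retests at 20 µM and on dose response follow-up; controls were probe without protein and protein plus probe with vehicle; some compounds called inactive have numbers as strong as hits; many hits fall short of the cut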
Target sequence (P11940 whole entry, looked up): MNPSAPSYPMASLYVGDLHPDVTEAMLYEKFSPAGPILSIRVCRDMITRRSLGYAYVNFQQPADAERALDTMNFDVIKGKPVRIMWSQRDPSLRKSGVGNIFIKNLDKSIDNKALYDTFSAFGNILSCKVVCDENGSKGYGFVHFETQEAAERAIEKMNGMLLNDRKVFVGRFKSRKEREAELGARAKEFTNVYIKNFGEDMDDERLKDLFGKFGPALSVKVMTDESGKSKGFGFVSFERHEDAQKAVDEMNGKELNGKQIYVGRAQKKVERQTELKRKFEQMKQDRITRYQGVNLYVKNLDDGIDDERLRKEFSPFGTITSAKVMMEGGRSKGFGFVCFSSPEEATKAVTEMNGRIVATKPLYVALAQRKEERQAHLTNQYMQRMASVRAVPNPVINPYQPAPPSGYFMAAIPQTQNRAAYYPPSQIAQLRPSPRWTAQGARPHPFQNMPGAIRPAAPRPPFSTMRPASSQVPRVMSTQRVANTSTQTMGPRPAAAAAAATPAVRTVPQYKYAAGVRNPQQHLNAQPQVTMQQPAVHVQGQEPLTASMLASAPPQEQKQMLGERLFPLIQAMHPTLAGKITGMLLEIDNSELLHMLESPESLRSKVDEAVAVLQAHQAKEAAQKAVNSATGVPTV
MT1-MMP act inh RFP: also measured in MT1-MMP act inh; calls as there; RFP signal change, %; measured here: RFP expression control read;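 0 = vehicle wells; hits needed this value within 50% of zero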
* hit, by the source's call; i = inactive; ? = inconclusive; / = no result given; + = active, no number. An excerpt; count on the stated rates, not on these rows.

SMILES	Rce1 inh	Yeast UUG start	eIF4H FP inh	CSC inhib	MT1-MMP act inh	MT1-MMP act inh RFP	HIV Env fusion	PABP FP inh
COc1ccc(/C=N/NC(=O)c2ccccc2OC)cc1COc1ccccc1[N+](=O)[O-]	i	-17	-4	50	0	0	/	0
COc1ccc(CCN(CC(=O)NC(C)(C)C)C(=O)Cn2nnc(-c3ccc(C)o3)n2)cc1OC	i	/	-5	-10	2	6	19	-3
CCOC(=O)c1cnn(-c2ccccc2)c1NC(=O)c1ccc(C)cc1	i	-11	-1	-6	6	1	-57	5
COC(=O)c1cn(C(=O)c2cc(Cl)ccc2Cl)c2ccccc12	i	-11	2	9	4	4	-24	-4
CCOC(=O)N/N=C(C)/C=C/c1ccco1	i	-15	20	0	1	4	-3	-1
CC(Oc1ccc(Cl)cc1Cl)C(=O)Nc1ccncc1 (centres undefined)	i	2	-15	27	-1	-16	?	2
COc1ccc(CN(C)C(=O)c2ccc(NS(=O)(=O)c3ccccc3)cc2)c(OC)c1	i	-9	/	-3	1	2	-12	/
COc1cccc(-c2csc(N3CCN(C(=O)NC45CC6CC(CC(C6)C4)C5)CC3)n2)c1	+	-10	7	34	-7	-22	/	5
CCCCCCN1C[C@H](n2cc(-c3ccc(F)cc3)nn2)[C@@H](O)C[C@@H]1c1ccc(C)cc1	/	-1	/	/	2	-1	29	/
CCC(=O)NC(=S)Nc1cccc(C(C)=O)c1	i	12	-2	-9	-1	1	/	-9
CN(Cc1ccccc1)C(=O)CN1C(=O)NC(C)(c2ccc(Cl)cc2)C1=O (centres undefined)	i	0	-5	-20	4	3	2	-8
Nc1ccc(S(=O)(=O)NC2(C(F)(F)F)NC(=O)N(Cc3ccccc3)C2=O)cc1 (centres undefined)	i	0	-11	-2	-1	2	6	6
c1cncc(-c2cn(C[C@H]3CC[C@@H]([C@@H]4CC[C@H](Cn5cc(-c6cccnc6)nn5)O4)O3)nn2)c1	i	-7	-2	-10	3	3	-16	-6
Cc1c(N(C(=O)c2cnccn2)C2(C(=O)NC3CCCC3)CCCCC2)c(=O)n(-c2ccccc2)n1C	i	6	9	-10	-5	1	5	10
COc1ccc(NC(=O)C2CCCN(S(=O)(=O)c3ccc4c(c3)CCCN4C(C)=O)C2)cc1Cl (centres undefined)	i	3	/	-2	-22	-30	20	/
O=C1CCC(CCC(=O)N2CCCC(C(=O)c3ccc(Cl)cc3)C2)=NN1 (centres undefined)	i	/	7	-6	-3	2	3	-2
Nc1nc(O)c(Sc2ccccc2[N+](=O)[O-])c(=O)[nH]1	i	-20	6	-16	4	1	-4	12
Brc1ccc(-c2csc3[n+]2CCCCC3)cc1	i	/	-5	9	1	9	-8	-4
Cc1cnc(C(=O)Nc2cccc3ncccc23)cn1	i	-4	-2	-9	5	2	/	-11
O=C(c1ccc(N2CCCC2=O)cc1)N1CCN(c2ccc(C(F)(F)F)cc2[N+](=O)[O-])CC1	/	-4	/	/	-5	-22	3	/
COc1cccc(/C=C/C(=O)OCC(=O)Nc2cc(C(F)(F)F)ccc2Cl)c1	i	18	10	0	4	0	-13	8
CC1(C(=O)O)CCC(C(=O)Nc2ccc(F)cc2)C1(C)C (centres undefined)	i	-17	-2	-17	-9	-5	-18	1
CCOC(=O)c1ccc(Oc2nc(OC)nc(N(C)C)n2)cc1	i	-4	-6	1	3	4	-121	7
O=C(O)COc1ccccc1/C=N/NC(=O)CSc1nc2ccccc2s1	i	-11	8	0	-7	-10	-7	10
COc1ccc(C(=O)NCCc2nnc3ccc(SCC(=O)NCCc4ccc(OC)c(OC)c4)nn23)cc1	i	-18	-13	-5	-2	1	12	-2
SMILES	Rce1 inh	Yeast UUG start	eIF4H FP inh	CSC inhib	MT1-MMP act inh	MT1-MMP act inh RFP	HIV Env fusion	PABP FP inh
Cn1c(CNC(=O)c2ccccc2)nnc1SCC(=O)Nc1nccs1	i	-19	-7	-4	0	1	10	4
CC(C#N)(CCc1ccccn1)CCc1ccccn1	/	-21	/	/	1	1	6	/
COc1ccccc1NC(=O)CSc1nc(SC)ns1	i	8	-6	-11	-3	-4	-3	-2
CCOc1cccc(/C=N/NC(=O)c2cc(-c3cccn3C)n[nH]2)c1O	i	/	16	-6	-3	-5	-1	2
Cc1ccccc1CS(=O)(=O)CC1(O)CCN(C(=O)c2cccc(C(F)(F)F)c2)CC1	i	-10	-5	0	-1	-4	-36	-6
NNC(=O)c1cc(-c2ccccc2)sc1N	i	-23	-1	-19	5	2	-4	-2
Cc1cccc(C(C)C)c1NC(=O)COC(=O)c1cc2ccccc2oc1=O	/	0	/	-7	4	4	/	/
C=CCn1c(SCC(=O)c2ccc(O)c(O)c2)nnc1-c1ccccc1OC	i	-20	3	-9	9	-2	-128	12
CN(CCc1ccccn1)C(=O)CCC1CCCN(C(=O)CCOc2ccccc2)C1 (centres undefined)	i	/	-9	17	4	2	13	-5
COc1ccc(C(=O)OCC#CCSc2nnc(-c3cccc4ccccc34)o2)cc1	/	-7	/	/	7	2	-15	/
COc1ccc(OC)c(-c2nc3ccccc3nc2-c2ccccc2)c1	i	/	-5	-4	0	-4	-1	9
COc1cccc(CNc2ccc(S(=O)(=O)Nc3nccs3)cc2)c1O	i	-14	-3	-6	-1	-6	-69	-2
CN(c1ccccc1)S(=O)(=O)c1cccc(NC(=O)CSc2nncs2)c1	i	-4	-8	-1	-6	-25	54	6
CC(C)CN(CC(C)C)S(=O)(=O)N1CCC(C(=O)NCc2cccnc2)CC1	i	/	2	21	-1	2	9	0
COCCCN(C(=O)Nc1ccc(C)c(C)c1)C(C)c1ccccn1 (centres undefined)	i	-20	-4	-11	0	4	1	-1
CC12CN(C(=O)c3ccc([N+](=O)[O-])cc3)CC(C)(CN(C(=O)c3ccc([N+](=O)[O-])cc3)C1)C2=O	i	/	-14	-4	/	/	1	-10
CCOc1ccc(S(=O)(=O)N(CC(=O)NCC2CCCO2)c2ccc(F)cc2)cc1 (centres undefined)	i	-9	-7	-1	0	2	-7	0
Cc1ccc(NC(=O)CSc2nnc(NC(=O)C3CC3)s2)cc1C	i	-4	-6	-9	-3	1	6	8
O=c1c2[nH]c3ccccc3c2ncn1Cc1ccncc1	i	1	5	-2	3	1	3	9
CC(=O)Nc1ccc(S(=O)(=O)Nc2cccc(-c3cn4c(n3)SCC4)c2)cc1	i	/	0	3	-1	-1	19	5
Cc1ccc(NC(=S)N(CCN(C)C)Cc2cc3cccc(C)c3[nH]c2=O)cc1	i	-11	1	-18	0	3	4	6
CCOc1nc(NCCN2CCOCC2)nc(Nc2ccc([N+](=O)[O-])cc2)n1	i	/	0	-6	-5	-4	-3	11
Cc1ccc(-c2c[nH]c(=S)n2-c2ccccc2)cc1	i	/	-25	4	0	-3	9	1
N=C1SCC(=O)N1c1nc(-c2ccccc2)cs1	i	-22	0	1	7	5	-87	5
CC1CCCN(CCCNS(=O)(=O)c2ccc3c(c2)CCN3C(=O)C2CC2)C1 (centres undefined)	i	-13	4	47	1	1	0	1
SMILES	Rce1 inh	Yeast UUG start	eIF4H FP inh	CSC inhib	MT1-MMP act inh	MT1-MMP act inh RFP	HIV Env fusion	PABP FP inh
CNC(=O)CCSc1ccc(C)cc1	i	-2	-14	-11	3	5	-22	-11
C#Cc1ccc([C@H]2C=C(C(=O)O)O[C@@H](OCCCCO)C2)cc1	i	-7	/	-10	3	3	5	/
CCN1CCCC1CNC(=O)c1ccc(Sc2ccccc2Cl)c([N+](=O)[O-])c1 (centres undefined)	i	0	-1	74	1	2	1	0
Nc1nonc1C(=O)NCCN=Cc1cc(Cc2ccccc2)cc(Br)c1O	i	-33	0	/	-16	1	/	17
COc1ccccc1NC(=O)C1CCCN(S(=O)(=O)c2ccccc2)C1 (centres undefined)	i	-24	-12	2	-1	-3	6	-4
O=C1C2C(C(=O)N1CCN1CCN(Cc3ccc([N+](=O)[O-])cc3)CC1)[C@H]1C=C[C@@H]2C1 (some centres undefined)	i	/	-9	-10	6	-9	0	-5
Cc1ccc(NC(=O)CCC(=O)N/N=C/c2cc([N+](=O)[O-])ccc2O)cc1	i	-22	1	18	-6	-6	12	7
Oc1ccccc1Cn1c(-c2ccccc2O)nc2ccccc21	i	-10	-11	42	3	-6	-73	2
CCC(=O)Nc1ccc(C(=O)COC(=O)CCN2C(=O)C3CC=CCC3C2=O)cc1 (centres undefined)	i	0	/	-3	-4	1	-4	/
Cc1c[n+]([O-])ccc1Oc1ccc([N+](=O)[O-])cc1	i	-19	/	-1	3	9	-47	/
c1ccc(Oc2cccc(CN3CCOCC3)c2)cc1	/	2	-6	-6	5	0	1	10
Cc1cccc(C)c1NC(=O)c1cccc(C(=O)Nc2c(C)cccc2C)n1	i	16	/	-15	0	-4	-30	/
COc1ccc(NC2=CC(c3ccccc3)N(c3ccc(OC)cc3)C2=O)cc1 (centres undefined)	i	-14	-13	7	1	2	17	-1

Complete entries from above. Screens in order: Rce1 inh | Yeast UUG start | eIF4H FP inh | CSC inhib | MT1-MMP act inh | MT1-MMP act inh RFP | HIV Env fusion | PABP FP inh
Record of Cc1ccc(NC(=O)CSc2nnc(NC(=O)C3CC3)s2)cc1C = i | -4 | -6 | -9 | -3 | 1 | 6 | 8
Record of Cc1c(N(C(=O)c2cnccn2)C2(C(=O)NC3CCCC3)CCCCC2)c(=O)n(-c2ccccc2)n1C = i | 6 | 9 | -10 | -5 | 1 | 5 | 10
Record of Cc1ccc(-c2c[nH]c(=S)n2-c2ccccc2)cc1 = i | / | -25 | 4 | 0 | -3 | 9 | 1

Of the compounds above, these have two or more sulfur atoms:
SMILES	Rce1 inh	Yeast UUG start	eIF4H FP inh	CSC inhib	MT1-MMP act inh	MT1-MMP act inh RFP	HIV Env fusion	PABP FP inh
O=C(O)COc1ccccc1/C=N/NC(=O)CSc1nc2ccccc2s1	i	-11	8	0	-7	-10	-7	10
Cn1c(CNC(=O)c2ccccc2)nnc1SCC(=O)Nc1nccs1	i	-19	-7	-4	0	1	10	4
COc1ccccc1NC(=O)CSc1nc(SC)ns1	i	8	-6	-11	-3	-4	-3	-2
COc1cccc(CNc2ccc(S(=O)(=O)Nc3nccs3)cc2)c1O	i	-14	-3	-6	-1	-6	-69	-2
CN(c1ccccc1)S(=O)(=O)c1cccc(NC(=O)CSc2nncs2)c1	i	-4	-8	-1	-6	-25	54	6
Cc1ccc(NC(=O)CSc2nnc(NC(=O)C3CC3)s2)cc1C	i	-4	-6	-9	-3	1	6	8
CC(=O)Nc1ccc(S(=O)(=O)Nc2cccc(-c3cn4c(n3)SCC4)c2)cc1	i	/	0	3	-1	-1	19	5
N=C1SCC(=O)N1c1nc(-c2ccccc2)cs1	i	-22	0	1	7	5	-87	5
